High-throughput results (PubChem)
Measles inh = inhibitors of measles virus growth in cells, primary screen, measles RdRp inhibitor project, cell-based, single point, HTS. infected Vero cells, GFP fluorescence, 64 h; stronger effect = lower value. z-score (no concentration beside the values). hit rate 0.1% among 33,000. AID 745, 2007;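 active means z-score under -3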;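 further: score is relative to mean and SD of the compound wells of a plate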
* marks the source's active call; other numbers are inactive results.

entry	Compound	Measles inh
1	CC(=O)c1c(C)oc2ccc(N(C(C)=O)S(=O)(=O)c3ccc(C)cc3C)cc12	-0.12
2	CCC(C)NC(=O)C1C2C=CC3(CN(Cc4cccs4)C(=O)C13)O2 (configuration not stated)	-1.32
3	CC(=O)N1CCc2cc(Br)cc(S(=O)(=O)CCC(=O)NCCN3CCC(C)CC3)c21	0.13
4	O=C(Nc1nnc(N=Cc2ccc(Br)s2)s1)c1ccc(S(=O)(=O)N2CCOCC2)cc1	0.83
5	O=C(CN1C(=O)c2ccccc2C1=O)Nc1ccc(NC(=O)CN2C(=O)c3ccccc3C2=O)cc1	-0.14
6	C=CCc1c(C)nc(SC)nc1Nc1ccc(C)cc1	-0.14
7	CCc1ccc(NS(=O)(=O)c2ccc3[nH]cc(C(=O)N(C)Cc4ccco4)c(=O)c3c2)cc1	0.62
8	CCOC(=O)c1cnc2c(ccc3ccccc32)c1N	-0.19
9	COc1ccc2c(c1OC)C(=O)OC2Nc1ccc(NC(C)=O)cc1 (configuration not stated)	2.06
10	O=C(Cc1ccccc1)N1CCN(c2ccc([N+](=O)[O-])cc2Cl)CC1	-0.56
11	COc1ccc(CNC(=O)c2cn(C)c(=O)c3c2c2ccccc2n3C)c(OC)c1	-1.53
12	CC1=C(C(=O)OC2CCCC2)C(c2coc3ccccc3c2=O)C2=C(CC(c3cccs3)CC2=O)N1 (configuration not stated)	-0.03

entry	Compound	Measles inh
13	COc1ccccc1C1CC(c2ccc(Br)cc2)Nc2nnnn21 (configuration not stated)	-0.36
14	CCc1ccc(NC(=O)CCC(=O)Nc2ccc3nc(N4CCOCC4)cc(C)c3c2)cc1	1.39
15	Cc1ccc(S(=O)(=O)NCCC(=O)NCCc2ccccc2)cc1	0.87
16	Cc1ccccc1CSc1nc2ccsc2c(=O)n1Cc1ccc2c(c1)OCO2	0.73
17	Cc1ccc(-c2c3c(=O)n(C)c(=O)n(C)c3cn2-c2ccc(F)cc2)cc1	1.05
18	COc1cccc(CNCc2ccccc2OC)c1	-0.51
19	CCN(c1ccccc1)S(=O)(=O)c1ccc(F)c(C(=O)Nc2c(C)cccc2C)c1	-0.4
20	O=C(Cc1c(C(=O)O)[nH]c2ccc(Cl)cc12)NCCC1=CCCCC1	0.84
21	Cc1ccccc1OCC(=O)Nc1cc(C(=O)Nc2ccccc2)ccc1Cl	-0.64
22	CCOC(=O)c1c(NC(=O)CCN2C(=O)c3ccccc3C2=O)sc(C)c1C	1.06
23	N#Cc1cc2c(nc1SCC(N)=O)CCC2	1.4
24	O=C(OC(c1ccccc1)c1nccc2ccccc12)c1ccc(Cl)cc1 (configuration not stated)	-0.16

entry	Compound	Measles inh
25	O=C1SC(Nc2ccc(Br)cc2)C(=O)N1Cc1ccccc1 (configuration not stated)	-0.99
26	O=C(Nc1ccccc1C(=O)NCCO)c1ccccc1	-1.8
27	O=C(NCC1CCCO1)C12CC3CC(CC(C3)C1)C2 (configuration not stated)	0.27
28	Cc1ccc(NC(=O)CC2CCOCC2)cc1C	-0.26
29	C=CCN(CC=C)c1nc(-c2ccc(Cl)cc2)nc2ccccc12	-0.13
30	Nc1c(-c2ccccc2)cnc2cc(-c3ccccc3)nn12	0.93
31	O=C(NCc1ccc(Cl)cc1)c1ccc2c(c1)N(Cc1cccc(Cl)c1)C(=O)CS2	0.26
32	Cc1cc(C)cc(Oc2c(C(F)(F)F)oc3c(CN(C)C)c(O)ccc3c2=O)c1	-0.35
33	O=C(NCc1cccs1)c1cc(S(=O)(=O)N2CCCC2)ccc1F	1.08
34	O=C(O)CCc1ccc(-c2ccc(Cl)cc2)n1CC(=O)O	1.81
35	CC1=CC(C)(C)N(C(=O)c2ccc(F)cc2)c2ccc(OC(=O)c3ccc(F)cc3)cc21	-1.05
36	O=C(Cn1nc(-c2ccc(Cl)cc2)c2ccccc2c1=O)N1CCCCC1	0.64

entry	Compound	Measles inh
37	O=C(Cn1c(=S)[nH]c2ncccc2c1=O)NCc1ccccc1	0.15
38	O=C(CNS(=O)(=O)c1cccc2nsnc12)NCc1ccccc1Cl	-0.48
39	CCC(Cc1ccccc1)N1C(=O)c2cccnc2C1=O (configuration not stated)	3.13
40	CCOC(=O)c1c(-c2ccccc2)oc2c1cc(OC(=O)c1ccc(S(=O)(=O)N3CCOCC3)cc1)c1ccccc12	-0.38
41	Cc1ccc(CS(=O)(=O)CCC(=O)NCc2ccc3c(c2)OCO3)cc1	1.25
42	Nc1c(C(=O)Nc2ccc(Cl)c(C(=O)O)c2)sc2nc3c(cc12)CCCCC3	-0.26
43	Cc1c(C(=O)Nc2ccc(Oc3ccccc3)cc2)sc2nc(C)n(C)c(=O)c12	-1.1
44	COc1ccccc1CNC(=O)c1ccc(S(=O)(=O)c2cccc(Cl)c2)c([N+](=O)[O-])c1	-0.58
45	CCN(CC)C(=O)c1c[nH]c2ccc(S(=O)(=O)N(C)c3ccc(C(C)C)cc3)cc2c1=O	-1.15
46	COc1ccc(S(=O)(=O)N2CCN(C(=O)c3ccccc3F)CC2)cc1	0.44
47	O=C(CSCc1ccc(F)cc1)Nc1ccccc1	1.08
48	O=C(Nc1ccccc1C(=O)Nc1ccc(Br)cn1)c1ccccc1	-1.7

entry	Compound	Measles inh
49	O=C(O)c1cccc(-c2cccc(C(=O)O)c2)c1	0.26
50	CCOC(=O)c1c(-c2ccc(Br)cc2)csc1NC(=O)CSc1ccccc1	0.88
51	CCN1C(=O)c2cccc3c(S(=O)(=O)N4CCc5ccccc5C4)ccc1c23	-0.26
52	CC(=O)N1CCc2cc(S(=O)(=O)NC(C(=O)Nc3cc(C)cc(C)c3)C(C)C)ccc21 (configuration not stated)	-0.55
53	O=C(CC1Sc2ccccc2NC1=O)NCCc1ccccc1 (configuration not stated)	-0.12
54	CCc1ccc(S(=O)(=O)Nc2ccc3oc4c(c3c2)C(=O)CC(C)(C)C4)cc1	-0.12
55	O=C1c2ccccc2C(=O)C1C(c1cccc([N+](=O)[O-])c1)C1C(=O)c2ccccc2C1=O	-0.09
56	COc1ccc(C2=NC(C3CCCCC3)NC(c3ccccc3O)C2)cc1OC (configuration not stated)	1.57
57	Cc1ccc([N+](=O)[O-])cc1N=Cc1c(C)cc(O)cc1O	0.35
58	CCCCCC(=O)N1c2ccccc2NC2=C(C(=O)CC(c3ccc(F)cc3)C2)C1c1cccs1 (configuration not stated)	-0.61
59	COC(=O)c1sc(=S)n(-c2cc(OC)ccc2OC)c1N	0.05
60	COC(=O)c1sc2ccccc2c1NC(=O)c1nc2ccccc2s1	-1.94

entry	Compound	Measles inh
61	Cc1ccc(C2C3=C(CC(C)(C)CC3=O)Nc3nc(SCCC(C)C)[nH]c(=O)c32)cc1 (configuration not stated)	1.42
62	CC(C)(O)c1cn2ccccc2n1	0.63
63	COc1cc2c(cc1OC)C(c1ccc(Br)cc1)CC(=O)N2 (configuration not stated)	0.56
64	COc1ccc(-c2csc(Nc3cc(Cl)ccc3OC)n2)cc1	-0.3
65	COc1cc(OC)cc(-c2nc(-c3cccc([N+](=O)[O-])c3)no2)c1	-0.43
66	Cc1nn(C(C)(C)C)c(OC(=O)CCc2ccccc2)c1Sc1ccccc1[N+](=O)[O-]	0.52
67	O=C(CC1SC(=O)NC1=O)Nc1cccc([N+](=O)[O-])c1 (configuration not stated)	-1.44
68	CC(C)(C)c1ccc(C(=O)Nc2ccc(-c3nc4ccccc4s3)c(O)c2)cc1	0.43
69	COc1ccc(C2Nc3ccccc3NC3=C2C(=O)CC(c2cccs2)C3)cc1Br (configuration not stated)	-0.13
70	Cc1c(C(=O)c2ccc(Cl)cc2)sc2nc3ccccc3n12	-0.07
71	O=C(Nc1cccc(Oc2ccc3c(c2)C(=O)N(c2ccccc2)C3=O)c1)c1cccs1	-0.37
72	CCOC(=O)c1c(C)oc2cc(Br)c(OC(C)C(=O)OCC)cc12 (configuration not stated)	-0.06

entry	Compound	Measles inh
73	COC(=O)C(NC(C)=O)(Nc1sc2c(c1C#N)CCCCC2)C(F)(F)F (configuration not stated)	1.24
74	O=C(c1cc2c(=O)n3ccccc3nc2s1)N1CCc2ccccc2C1	-0.75
75	COc1cc(-c2nc(Nc3cccc([N+](=O)[O-])c3)c3ccccc3n2)cc(OC)c1OC	-0.2
76	CC1CC(C)CN(S(=O)(=O)c2ccc(C(=O)Nc3sc4c(c3C(N)=O)CC(C)(C)NC4(C)C)cc2)C1 (configuration not stated)	-0.52
77	CC1=C(C(N)=O)C(c2ccccc2F)NC(=S)N1 (configuration not stated)	1.18
78	CCOC(=O)C1CCN(C(=O)c2c[nH]c3ccc(S(=O)(=O)N4CCOCC4)cc3c2=O)CC1	1.86
79	O=C(NCc1n[nH]c(=S)n1-c1ccc(Br)cc1)c1ccc(S(=O)(=O)N2CCOCC2)cc1	1.82
80	CCc1noc(C)c1C(=O)Nc1nnc(C2CC2)s1	-0.64
81	CC(C)C(NS(=O)(=O)c1cccs1)C(=O)NCc1ccc(F)cc1 (configuration not stated)	-0.29
82	O=C(c1cnn2c(C(F)(F)F)cc(-c3ccc(Br)cc3)nc12)N1CCCCCC1	-0.48
83	COc1ccc(-c2cc(C(F)(F)F)n3ncc(C(=O)N4CCN(c5cccc(Cl)c5)CC4)c3n2)cc1OC	-0.66
84	CCOC(=O)c1cnc2ccc(C(=O)OC)cc2c1Nc1ccc(C(=O)O)cc1	0.92

entry	Compound	Measles inh
85	Cc1ccc(S(=O)(=O)Nc2cccc(C(=O)O)c2)cc1C(N)=O	0.11
86	O=C1c2ccccc2NC(c2ccncc2)N1c1ccccn1 (configuration not stated)	-0.23
87	Cc1ccc(S(=O)(=O)c2c(C)nn(C(C)(C)C)c2OC(=O)c2ccc(C)c(C)c2)cc1	-0.07
88	FC(F)(F)c1ccc(-c2noc(-c3cccs3)n2)cc1	-0.71
89	CC(C)(C)c1ccc(-c2csc(NC(=O)c3cccc([N+](=O)[O-])c3)n2)cc1	0.53
90	CCOc1cccc2c1OC1(C)CC2NC(=S)N1c1ccc(C)cc1 (configuration not stated)	-0.23
91	CCc1ccc(-n2cnc3cc(C(=O)NCc4ccc(F)cc4)ccc32)cc1	1.78
92	CC(C)CCOC(=O)c1ccc(NC(=O)c2ccc([N+](=O)[O-])cc2)cc1	-1.4
93	COc1cccc(S(=O)(=O)Nc2ccc3sc(C)nc3c2)c1	-1.01
94	Cc1ccc(-c2nc3cc(N=Cc4cccc([N+](=O)[O-])c4)ccc3o2)cc1C	-0.27
95	CC(C)c1cc(C(C)C)c(S(=O)(=O)NCC2CCCO2)c(C(C)C)c1 (configuration not stated)	-0.64
96	Cc1sc2ncn(CC(=O)Nc3ccc4c(c3)OCCO4)c(=O)c2c1S(=O)(=O)N1CC(C)CC(C)C1 (configuration not stated)	-1.78

entry	Compound	Measles inh
97	COc1ccc(C(=O)N2N=C3CCC(C)CC3C2(O)C(F)(F)F)cc1 (configuration not stated)	-0.4
98	Cn1c(-n2c(CN3C(=O)c4ccccc4C3=O)nc3ccccc3c2=O)nc2ccccc21	0.46
99	CCCNC(=O)c1ccc2c(c1)N(Cc1ccccc1C)C(=O)CS2	-0.32
100	CCc1ccc(C(=O)c2c[nH]c3ccccc3c2=O)cc1	-1.17
101	O=C(CN1C(=O)c2ccccc2S1(=O)=O)Nc1ccc2c3c(cccc13)CC2	-0.18
102	CCOc1ccc(C2C(C(=O)OC(C)C)=C(C)NC3=C2C(=O)CCC3)cc1 (configuration not stated)	-0.13
103	CCn1cc(C(=O)N(C)c2ccc(Br)cc2)c2cc(OC)c(OC)cc2c1=O	-0.19
104	COc1cccc(C(=O)N2CCn3c2nc2ccccc23)c1	0.87
105	COc1ccc(CCN2C(=O)c3ccccc3C2C(=O)NC2CCCC2)cc1OC (configuration not stated)	-0.66
106	CC1(C)CC(=O)C(C2c3ccccc3Oc3ccccc32)C(=O)C1	0.45
107	Cc1sc(NC(=O)C2C3CCC(C3)C2C(=O)O)c(C(N)=O)c1-c1ccc(C(C)(C)C)cc1 (configuration not stated)	-0.26
108	COc1cccc(NC(=O)C2CC(=O)OC23CCCCC3)c1 (configuration not stated)	1.17

entry	Compound	Measles inh
109	COc1ccc(C(=O)Oc2c(S(=O)(=O)c3ccc(C)cc3)c(C)nn2-c2ccccc2)cc1	-0.07
110	COc1ccc(CCNC(=O)CSc2c[nH]c3ccccc23)cc1OC	-0.69
111	CC1CC(C)(C)NC(=S)N1CC(=O)N(C)c1ccc(Br)cc1 (configuration not stated)	0.06
112	CCOC(=O)c1c(NC(=O)C2CCCCC2)sc(C(=O)Nc2ccc(C)c(Cl)c2)c1C	1.95
113	COc1ccc(-c2cc(=O)[nH]c(SCC(=O)Nc3ccccc3)n2)cc1	-1.76
114	COc1ccc(NS(=O)(=O)c2cc(Br)cc3c2N(C(=O)C2CC2)CC3)cc1Cl	0.38
115	CCN(CC)S(=O)(=O)c1ccc2[nH]cc(C(=O)NCc3ccc(OC)cc3)c(=O)c2c1	-0.51
116	COc1ccc2[nH]c3c(N4CCOCC4)ncnc3c2c1	-0.07
117	O=C(c1ccc(Br)o1)N1CCN(c2cccc(C(F)(F)F)c2)CC1	-0.26
118	CCCCS(=O)c1sc2nc(C)cc(C)c2c1N (configuration not stated)	-0.38
119	Cc1nc(Nc2ccccc2)c([N+](=O)[O-])c(Nc2ccccc2)n1	1.26
120	N#Cc1c(N2C(=O)C3CC=C(Cl)CC3C2=O)sc2c1CCCC2 (configuration not stated)	-0.22
121	CCCN(CCC)C(=O)c1cn(C)c2ccc(S(=O)(=O)N3CCC(C)CC3)cc2c1=O	-0.3
122	CCOC(=O)c1c(NC(C)=O)sc2c(O)c(Sc3ccccc3)ccc12	-0.78
123	COc1ccc(NC(=O)c2cc(S(=O)(=O)N3CCCc4ccccc43)ccc2F)cc1	0.09

Laid out differently: 7 of the compounds above.
#	Measles inh	mol
114	0.38	COc1ccc(NS(=O)(=O)c2cc(Br)cc3c2N(C(=O)C2CC2)CC3)cc1Cl
112	1.95	CCOC(=O)c1c(NC(=O)C2CCCCC2)sc(C(=O)Nc2ccc(C)c(Cl)c2)c1C
110	-0.69	COc1ccc(CCNC(=O)CSc2c[nH]c3ccccc23)cc1OC
120	-0.22	N#Cc1c(N2C(=O)C3CC=C(Cl)CC3C2=O)sc2c1CCCC2 (configuration not stated)
111	0.06	CC1CC(C)(C)NC(=S)N1CC(=O)N(C)c1ccc(Br)cc1 (configuration not stated)
117	-0.26	O=C(c1ccc(Br)o1)N1CCN(c2cccc(C(F)(F)F)c2)CC1
115	-0.51	CCN(CC)S(=O)(=O)c1ccc2[nH]cc(C(=O)NCc3ccc(OC)cc3)c(=O)c2c1

Not all compounds are listed, so the mix of outcomes need not match the whole.
